Mtb bLac sens – beta-lactam sensitization of Mtb H37Rv | inhibition, % at 25 µM | 330,000 compounds, 0.27% hits | M. tuberculosis H37Rv growth with meropenem, percent inhibition; hits of this screen are not shown here;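 active means about 74% or more and at least 40 points above the plate without the antibiotic, then above 30% in a dose series; inconclusive means first-round hits that could not be retested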;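 further: growth measured after seven days incubation then overnight dye step; 0% = bacteria only wells and 100% = bacteria with antibiotic; twin plates without the antibiotic show which effects depend on it; some results filed as inactive read as strong as hits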
An asterisk follows results filed as active; ? = inconclusive. These rows are one share of the data, so the mix of outcomes need not match the whole.

Structure,Mtb bLac sens
COc1ccc(CN(C)C(=O)Cn2cnc3c(SC)nc(N)nc32)cc1OC,3
CCCc1cc(=O)[nH]c(SCC(=O)Nc2ccc(C(=O)Nc3ccccc3OC)cc2)n1,1
O=[N+]([O-])c1ccccc1CNCCCCCO,-7
Cc1ccccc1OCC(=O)Nc1ccc(N2CCOCC2)cc1N1CCOCC1,0
O=C(COC(=O)c1ccc(Cl)cc1[N+](=O)[O-])NCc1ccco1,12
COc1cc(C(=S)N2CCCC2)ccc1OCc1ccccc1,-8
CCS(=O)c1ccccc1C(=O)OCC(=O)Nc1cccc(S(=O)(=O)N2CCCCC2)c1 (stereo not given),5
O=C(O)C1C(C(=O)O)C2(Cl)C(Cl)=C(Cl)C1(Cl)C2(Cl)Cl (stereo not given),0
O=C(COC(=O)c1cccc(S(=O)(=O)N2CCOCC2)c1)NCc1ccc2c(c1)OCO2,-11
c1ccc([C@H]2CN3C(=N2)Sc2ccccc23)cc1,2
COC(=O)C1=C(c2cccc(C#N)c2)C[C@@H]2CC[C@H]1N2C(=O)N1CCC(C)CC1,-8
COc1ccc(Cc2nnc(SCC(=O)c3c(N)n(C4CC4)c(=O)[nH]c3=O)o2)cc1,-1
CCCCn1c(N)c(N(C)C(=O)C2CCCC2)c(=O)[nH]c1=O,-1
CC(Sc1nnc(C2CC2)n1C1CC1)C(=O)Nc1cccc(S(=O)(=O)N(C)C)c1 (stereo not given),7
CC(=O)c1ccccc1NC(=O)c1cc(S(=O)(=O)N2CCOCC2)ccc1N1CCCC1,0
CCC1CCCCN1C(=O)COc1ccc2c3c(c(=O)oc2c1)CCC3 (stereo not given),-2
O=C(NCc1ccccn1)c1ccccc1OCc1ccc(Cl)cc1Cl,4
CCOc1ccccc1C(=O)OCC(=O)Nc1cccc(S(=O)(=O)N2CCCC2)c1,0
COc1cc(N)c(Cl)cc1C(=O)OCC(=O)NCC1CCCCC1,14
C=CCN1C(=O)c2ccc(C(=O)N3CCN(S(=O)(=O)c4ccccc4Br)CC3)cc2C1=O,4

Following part
Structure,Mtb bLac sens
Cc1noc(C)c1S(=O)(=O)N(C)C[C@H]1Oc2ccc(NS(=O)(=O)c3cn(C)cn3)cc2C(=O)N([C@H](C)CO)C[C@@H]1C,1
CCN(CC(=O)NCc1cccs1)C(=O)c1cccc(Cl)c1,-6
Cc1cc(C)cc(OCC(=O)N(C)CC(=O)Nc2ccc(Cl)c(C(F)(F)F)c2)c1,-10
CCN(CC(=O)Nc1c(F)cccc1F)C(=O)Cn1c(=O)cnc2ccccc21,-7
COCCn1c(C)cc(C(=O)COC(=O)c2cccnc2SC)c1C,3
C[C@H](CO)N1C[C@H](C)[C@@H](CN(C)CC2CCCCC2)Oc2c(NS(=O)(=O)c3cn(C)cn3)cccc2C1=O,11
CN(CC(=O)Nc1ccc(F)c(F)c1F)C(=O)c1n[nH]c(=O)c2ccccc12,-10
O=S(=O)(NCCCc1ccccc1)c1ccc(Br)cc1,1
CCN(CC(=O)NCc1cccs1)C(=O)c1ccc(Cl)c(Cl)c1,1
N#Cc1cccnc1N1CCN(C(=O)c2cccc3c2C(=O)c2ccc(-c4ccc(Cl)c(C(F)(F)F)c4)cc2S3(=O)=O)CC1,9
O=C(COc1ccc(S(=O)(=O)N2CCOCC2)cc1)Nc1ccccc1Cl,3
CCOc1cc(NC(=O)C2CC2)c(OCC)cc1NC(=O)c1cc(OC)c(OC)c(OC)c1,5
O=C(Nc1cc(S(=O)(=O)N2CCCCC2)ccc1N1CCOCC1)c1ccc(C(F)(F)F)cc1,2
CCOc1ccc(CN(C)C(=O)c2cccc(S(=O)(=O)N3CCCC3)c2)cc1OC,-9
COc1cc(CC(=O)OCC(=O)Nc2ccc(N(C)C)cc2)cc(OC)c1OC,-7
COc1ccc(OCC(=O)OCC(=O)Nc2ccc3[nH]c(=O)[nH]c3c2)cc1,-3
CCOc1ccc(CCNC(=O)c2cccc(-n3cnnn3)c2)cc1OCC,24
NS(=O)(=O)c1ccc(CCNC(=O)COC(=O)/C=C/c2cc(Br)ccc2F)cc1,-4
COC(=O)c1ccc(-n2c(C)cc(C(=O)COC(=O)C3=COCCO3)c2C)cc1,44
COCCN1CCN(C(=O)c2ccc3nc(Cc4ccc(OC)c(OC)c4)oc3c2)CC1,-5

Additional compounds:
Structure,Mtb bLac sens
Cc1ccc(CNC(=O)C(N=C2NS(=O)(=O)c3ccccc32)C(C)C)cc1 (stereo not given),2
CC(C)NC(=O)N(C)C[C@H]1Oc2ccc(NC(=O)C3CC3)cc2C(=O)N([C@H](C)CO)C[C@@H]1C,-7
CCNS(=O)(=O)c1ccc(Br)c(C(=O)OC(C)C(=O)NCC2CCCCC2)c1 (stereo not given),2
COc1ccccc1NCC(=O)NC(=O)NC1CCCCC1,1
Cc1ccc(Cl)cc1NC(=O)C1CC1c1ccccc1 (stereo not given),0
COc1cccc(/C=C/C(=O)OCC(=O)N2CCN(c3ccccc3)CC2)c1,86
C[C@H](CO)N1C[C@H](C)[C@@H](CN(C)Cc2ccc(Cl)c(Cl)c2)Oc2ccc(NC(=O)Cn3cnnn3)cc2C1=O,-1
O=C(O)c1ccccc1Nc1ccccc1,-1
COc1cc2c(cc1OC)CN(C(=O)c1cc(C3CC3)nn1-c1ccccc1)CC2,1
O=C(c1cccc(S(=O)(=O)Nc2ccc(F)cc2)c1)N1CCC1,-10
C[C@H](CO)N1C[C@H](C)[C@@H](CN(C)Cc2ccc(-c3ccccc3)cc2)Oc2ccc(NC(=O)Cn3cnnn3)cc2C1=O,4
COc1ccc(NC(=O)CN(C)C(C)C(=O)NC(=O)NC2CCCCC2)cc1 (stereo not given),-3
CCOc1ccc2oc(C(=O)N(CC)CC(=O)Nc3ccc(NC(C)=O)cc3)c(C)c2c1,5
COC(=O)C1=C(c2ccc(OC(F)(F)F)cc2)C[C@@H]2CC[C@H]1N2C(=O)NC1CCCCC1,3
OCC1=C[C@@H](O)[C@@H]2C=CO[C@@H](O[C@@H]3O[C@H](CO)[C@@H](O)[C@H](O)[C@H]3O)[C@H]12,-1
CC(=O)C[C@@H](O)CC(=O)[C@@H]1OC(=O)CCCCCCc2ccccc21,10
COc1ccc(CC(=O)OCC(=O)c2ccc(S(=O)(=O)N3CCCCC3)cc2)cc1,5
COc1ccc(OCCSc2ccc(S(=O)(=O)N3CCCC3)cn2)cc1,-5
CC1(C)OC(=O)C=C[C@]2(C)[C@H]3CC[C@@]4(C)[C@H](c5ccoc5)OC(=O)[C@H]5O[C@]54[C@]3(C)C(=O)C[C@@H]12,0
C[C@H](CO)N1C[C@H](C)[C@@H](CN(C)C(=O)NC2CCCCC2)Oc2c(NS(=O)(=O)c3ccc(F)cc3)cccc2C1=O,-9

The results go on.
Structure,Mtb bLac sens
COc1ccc(C(=O)N2CCCC(Nc3ccc(F)cc3)C2)c(OC)c1 (stereo not given),?
CC[C@@]1(C(=O)OC)N[C@H](CN(C)S(=O)(=O)c2ccc(C(C)(C)C)cc2)[C@@H]2C(=O)N(C)C(=O)[C@@H]21,0
O=C(COc1ccc(Br)cc1CO)Nc1ccc(S(=O)(=O)N2CCCCC2)cc1,0
Cc1ccc(-n2nnnc2SCC(=O)NCC2(N3CCCCC3)CCCCC2)c(C)c1,-2
N#Cc1cc(Cl)c(NCC2CCCO2)cc1C#N (stereo not given),7
Cc1cccnc1,12
CC(C)(C)n1ncc2c(=O)n(Cc3ccccc3Br)cnc21,11
O=C(NCC(c1cccs1)N1CCOCC1)c1ccc(OCc2ccccc2)cc1 (stereo not given),24
O=C1Nc2c(Br)cccc2C1=O,-7
O=C(CSc1nncs1)NCCNC(=O)CSc1nncs1,-6
CC(=O)Nc1nnc(/C=C/c2cccc([N+](=O)[O-])c2)s1,2
COc1ccc(S(=O)(=O)N2CCN(Cc3cccs3)CC2)cc1OC,0
CCOc1ccccc1N1CCN(CC(O)COC2CCCc3ccccc32)CC1 (stereo not given),1
O=C(COC(=O)c1ccc(O)cc1O)NC(=O)NCc1ccccc1,-1
Cc1ccc(S(=O)(=O)N2CCCNCC2)cc1,-6
O=C(NCc1ccccn1)c1cccc(NS(=O)(=O)c2ccccc2)c1,1
CCSc1nnc(NC(=O)C2CSC3(C)CCC(=O)N23)s1 (stereo not given),-3
O=C(OCC(=O)c1ccc[nH]1)c1cncc(Br)c1,2
CCOc1ncccc1C(=O)Nc1ccccc1N1CCOCC1,-4
O=C(COC(=O)CCc1ccc(S(=O)(=O)N2CCOCC2)cc1)Nc1ccccc1[N+](=O)[O-],-5

The results go on.
Structure,Mtb bLac sens
C=CCSc1ccc(S(=O)(=O)N2CCN(C)CC2)cn1,-1
CCc1cccc(C)c1NC(=O)c1cc(=O)[nH]c2ccc(S(=O)(=O)N3CCOCC3)cc12,-4
CCCCN(C(=O)C1=NN(c2cc(C)ccc2C)C(=O)CC1)c1c(N)n(CCC)c(=O)[nH]c1=O,5
O=C(COC(=O)c1ccc(Br)o1)NCC(=O)Nc1ccc(F)cc1,-1
O=C(CCc1nc2ccccc2c(=O)[nH]1)N1CCCc2ccccc21,-4
COc1ccc(NC2CCCN(C(=O)CCCn3cncn3)C2)cc1 (stereo not given),?
Cc1noc(C)c1NC(=O)Nc1cccc2c1O[C@H](CN(C)S(C)(=O)=O)[C@@H](C)CN([C@H](C)CO)C2=O,-2
CCN(CC(=O)NCc1cccs1)C(=O)c1cccc(S(=O)(=O)N2CC(C)OC(C)C2)c1 (stereo not given),-9
COc1ccc(C(=O)Nc2ccc(N3CCN(C)CC3)cc2)cc1,-4
Cc1ccccc1NCC(=O)Nc1cc(S(=O)(=O)N2CCCCC2)ccc1C,-3
C[C@H](CO)N1C[C@H](C)[C@@H](CN(C)C(=O)Nc2ccc(F)cc2)Oc2ccc(NS(C)(=O)=O)cc2C1=O,7
CC(=O)Nc1ccc(NC(=O)C(C)OC(=O)COc2ccc(Nc3ccccc3)cc2)cc1 (stereo not given),53
O=C(NCc1nc(-c2ccc(Cl)cc2)no1)c1ccco1,-21
CC(C)(C)OC(=O)[C@H](Cc1ccccc1)NC(=O)c1nc[nH]c1C(=O)N[C@@H](CCCCN)C(=O)OC(C)(C)C,-2
Cc1cccc(NC(=O)CSc2nc3[nH]c(=O)cc(O)c3s2)c1,2
COc1ccc(-c2csc(Nc3ccccn3)n2)cc1OC,64
O=C1C=C(c2ccc(Oc3ccccc3)cc2)C[C@@H](c2ccc(Cl)cc2)C1,48
CN(C(=O)CSc1ncnc2sccc12)C1CCS(=O)(=O)C1 (stereo not given),-18
Cc1c(Cl)cnc(NC(=O)COC(=O)c2ccncc2)c1Cl,-4
NS(=O)(=O)c1ccc(NS(=O)(=O)c2ccc(C3CNC(=O)C3)cc2)cc1 (stereo not given),-3

Four of the compounds above, field by field:
canonical_smiles: Cc1c(Cl)cnc(NC(=O)COC(=O)c2ccncc2)c1Cl
  Mtb bLac sens = -4

canonical_smiles: C=CCSc1ccc(S(=O)(=O)N2CCN(C)CC2)cn1
  Mtb bLac sens = -1

canonical_smiles: CCN(CC(=O)NCc1cccs1)C(=O)c1cccc(S(=O)(=O)N2CC(C)OC(C)C2)c1 (stereo not given)
  Mtb bLac sens = -9

canonical_smiles: O=C(CCc1nc2ccccc2c(=O)[nH]1)N1CCCc2ccccc21
  Mtb bLac sens = -4

(continued)
Structure,Mtb bLac sens
Cc1nn(-c2ccccc2)c(Cl)c1C(=O)NNC(=O)c1ccncc1,-4
Cc1ccc(OC(C)C(=O)Nc2ccc(Cl)cn2)c([N+](=O)[O-])n1 (stereo not given),1
COc1ccc(-c2ccc3c(c2)S(=O)(=O)c2cccc(C(=O)NCc4cccc(OC(F)(F)F)c4)c2C3=O)cc1OC,-4
O=C(CNS(=O)(=O)c1ccc(Cl)c(C(F)(F)F)c1)NC1CCCCC1,-9
CCOc1ccc(S(=O)(=O)NCCC(=O)NCC2COc3ccccc3O2)cc1 (stereo not given),-3
CCCn1c(SCC(=O)NC2CCC(C)CC2)n[nH]c1=O (stereo not given),-4
CC1CCc2c(sc(NC(=O)C3=COCCO3)c2C(N)=O)C1 (stereo not given),?
O=C(COC(=O)c1ccccc1F)NC1CC1,-1
CC1CCC2(CC1)NC(=O)N(CC(=O)N1CCOCC1)C2=O (stereo not given),-8
O=C(COC(=O)/C=C/c1cccc(Br)c1)Nc1cccc(S(=O)(=O)NC2=NCCC2)c1,6
CCN(C(=O)CN1CCCCC1C)c1c(N)n(Cc2ccccc2)c(=O)[nH]c1=O (stereo not given),-7
CN(c1ccccc1)S(=O)(=O)c1ccc(Cl)c(C(=O)Nc2ccncc2)c1,-2
COc1ccc(S(=O)(=O)Nc2cccc(S(=O)(=O)N3CCCCC3)c2)cc1,-9
CCCNC(=O)N1CCN(S(=O)(=O)c2ccc3c(c2)OCCO3)CC1,-3
Cc1ccc2nc3c(cc(C(=O)NCc4ccco4)c(=N)n3C3CCCC3)c(=O)n2c1,7
Cc1nc(-c2ccc(F)cc2)c(CC(=O)NCC(=O)Nc2ccc(F)c(F)c2)s1,0
CC(C)CN(CC(C)C)C(=O)COn1nnc2ccc(S(=O)(=O)N3CCOCC3)cc21,6
O=C(COC(=O)c1cccc(S(=O)(=O)NCc2ccccc2)c1)NC1CC1,0
